Bioassay records: PubChem BioAssay, ICCB-Longwood Screening Facility, Harvard Medical School
Bm FixLJ act – activators of Burkholderia fixLJ two-component system, primary screen, B. multivorans, GFP reporter. B. multivorans fixK-promoter GFP reporter, 18 h; stronger effect = higher value. z-score (test concentration not listed). 0.3% of 29,000 active;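 active means replicate mean overnight rise in green fluorescent reporter signal, 3 or more SD over negative controls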;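 further: score is relative to vehicle wells of the plate; 300 nL library stock went into each well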
Active calls of the source: *; & = joins results of further samples. A portion of the library; count on the stated rates, not on these rows.

SMILES	Bm FixLJ act
Cc1ccc(CNC(=O)c2cc3c(s2)-c2ccccc2SC3)cc1	-0.59
CC(C)c1cc(C(=O)N2CCCC(c3nccn3C)C2)no1 (configuration not stated)	-1.61
Cc1ccc2nc(-c3cccc(NC(=O)c4cccc5c(Cl)cccc45)c3)oc2c1	-2.44
C[C@H]1COc2c(C3(N)CC3)c(F)cc3c(=O)c(C(=O)O)cn1c23	-4.66
COc1ccc(-c2cc(C(F)(F)F)nc(SCC(=O)N(C)Cc3ccccc3)n2)cc1	0.86
CCOc1cccc(C2c3c(oc4ccccc4c3=O)C(=O)N2c2nc(C)c(C(=O)OC)s2)c1 (configuration not stated)	-1.17
CC(=O)Nc1c(I)cc(I)c(C(=O)O)c1I	-1.34
Cc1cccc(C(=O)N2CC3CCC2CN(C(=O)C2CCC2)C3)n1 (configuration not stated)	0.44
CCc1nc2c(cnn2-c2ccc(Cl)cc2)c(=O)n1-c1ccc(OC)c(Cl)c1	0.04
COc1ccc2[nH]c3c(c2c1)CN(C(=O)c1csc(SC)n1)CC3	-2
Cc1ccc(CNC(=O)CN(c2cccc(C)c2C)S(=O)(=O)c2ccccc2)cc1	-0.47
Cc1ccc(S(=O)(=O)NCCCNC(=O)c2cc(C)nc3ccc(C)cc23)cc1	-3.01
CCc1ccc(C(=O)c2cn(Cc3ccc(F)cc3)c3cc(OC)c(OC)cc3c2=O)cc1	-0.25
CCOC(=O)c1c(NC(=O)C2c3ccccc3Oc3ccccc32)sc(C)c1CC	-2.4
COc1ccc(N(CC(=O)Nc2ccc(C)c(C)c2)S(=O)(=O)c2ccc(C)cc2)cc1OC	-2.26
CC(C)C1CN(c2ccc(C#N)cn2)CCC(=O)N1Cc1ccc(F)cc1 (configuration not stated)	-2.4
O=C(Nc1cccc(-c2nc3ccccc3[nH]2)c1)c1c(F)cccc1F	-3.56
Cc1cccc(-c2ncc(C3CC(=O)Nc4cc(N(C)C)ccc43)cn2)c1 (configuration not stated)	1.01
Cc1cccc(-c2nc3c4ccccc4nc(N4CCN(c5cccc(Cl)c5)CC4)n3n2)c1	-0.01
CN1CCC(CN2CCN(c3cc(C4CC(O)C4)ncn3)CC2)CC1 (configuration not stated)	0.58
COc1ccc(-c2nc3ccccc3o2)cc1NC(=O)c1ccc(N2CCC(C)CC2)c([N+](=O)[O-])c1	0.03
CCn1nc(-c2cccc(C(=O)NC(C)CO)c2)nc1N(C)C (configuration not stated)	-0.29
CCOc1ccc(NC(=O)C(Cc2ccccc2)NS(=O)(=O)c2ccc3c(c2)oc(=O)n3C)cc1 (configuration not stated)	0.97
CCN(Cc1ccccc1)Cc1c(O)ccc2oc(C)c(C(=O)Nc3ccc(C)cc3C)c12	-0.87
CCC(C)Cc1nc(CCn2nc(C)cc2C)n(CCO)n1 (configuration not stated)	-0.99
NC(=O)CSc1oc(-c2ccco2)nc1S(=O)(=O)c1ccc(Br)cc1	-1.06
CNC(=O)c1c(NC(=O)c2nc(SCc3ccc(C)cc3)ncc2Cl)sc2c1CCCC2	-2.15
COCc1noc(-c2nc3c([nH]2)CC(c2ccccc2OC)CNC3=O)n1 (configuration not stated)	-1.73
Cc1ccc(C2C=C(c3ccc(F)cc3)Nc3nc(CCCO)nn32)cc1 (configuration not stated)	-0.76
Cc1cccc(N2CCN(C(=O)Cn3cnc4sc(C)c(S(=O)(=O)N5CCN(c6ncccn6)CC5)c4c3=O)CC2C)c1 (configuration not stated)	-3.07
CCOC(=O)c1c(NC(=O)CSc2cn(CCNC(=O)c3c(F)cccc3F)c3ccccc23)sc2c1CCC2	0.2
CCOC(=O)c1nnc2c(-c3ccc(Cl)cc3)c(C)nn2c1C	0.22
COc1cc(Cl)c(S(=O)(=O)NCCc2c(C)[nH]c3c(C)cccc23)cc1Cl	-2.35
Cc1cccc(NC(=O)Cn2c(=O)oc3cc(S(=O)(=O)NCc4ccccc4)ccc32)c1	-2.39
COc1ccc(S(=O)(=O)N2CCN(Cc3ncccc3OC)CC2)cc1	0.46
CCCCNC(=O)Cn1cnc2sc(C)c(S(=O)(=O)N3CCN(c4ccccc4OC)CC3)c2c1=O	-0.72
COc1cc(CN(C(=O)c2ccccc2F)C2CCS(=O)(=O)C2)cc(OC)c1OC (configuration not stated)	-0.42
Cc1nc2cc(-c3ccccc3)nn2c(C)c1CCC(=O)N1CCN(c2ccc(F)cc2)CC1	-0.12
Cc1nc(C2CCN(Cc3ccn4nccc4c3)CC2)cc(=O)[nH]1	-0.19
Cc1nc(C(=O)NC2CCCC(CNC(=O)COc3cccc(F)c3)C2)cs1 (configuration not stated)	0.04

Random excerpt: two entries already listed
SMILES	Bm FixLJ act
Cc1nc2cc(-c3ccccc3)nn2c(C)c1CCC(=O)N1CCN(c2ccc(F)cc2)CC1	-0.12
CCOC(=O)c1nnc2c(-c3ccc(Cl)cc3)c(C)nn2c1C	0.22

Carrying on.
SMILES	Bm FixLJ act
CCOC(=O)c1[nH]c2c(c1Cc1ccccc1OC)C(=O)CC(c1ccc(OCC)cc1)C2 (configuration not stated)	0.15
Cc1ccc(S(=O)(=O)N(CC(O)Cn2c3ccccc3c3ccccc32)c2cccc(C(=O)NCCO)c2)cc1 (configuration not stated)	-0.99
CCCN1CCN(CCCNC(=O)Cn2nc(CC)n3c(cc4occc43)c2=O)CC1	0.72
COc1cccc(-c2[nH]ncc2C(=O)NCCc2ccccn2)c1	0.89
O=C(NC1CC1)c1cc2c(s1)C1(CCN(C(=O)C3CCCO3)CC1)OCC2 (configuration not stated)	-0.8
COCC1C(NC(=O)COc2ccc(C)cc2)C2CCOC21 (configuration not stated)	-1.08
CSc1ccc(S(=O)(=O)NCc2nncn2CCc2ccccc2)cc1	-2.14
CSc1ncccc1C(=O)Nc1ccc(Oc2nn[nH]n2)cc1	0.49
CCCCNC(=O)CN(C)c1nc(C)nc2c1Cc1ccccc1OC2	-1.2
NC(=O)C1(N2CCCCC2)CCN(C(=O)Nc2ccc(F)cc2)CC1	-0.49
COc1ccc(Cl)cc1NC(=O)c1cn(C2CCCC2)c(=O)c2c1c1ccccc1n2C	-1.59
O=C(c1ccccc1)n1nc(-c2ccc(Cl)cc2)nc1NCc1ccco1	-1.37
CCOC(=O)C(C)(C)Oc1ccc(Cl)cc1	0.4&-1.73
CCCC(=O)N1CCc2cc(S(=O)(=O)N3CCCC3COC)ccc2C1 (configuration not stated)	-0.3
Cc1ccc2c(CC(=O)Nc3ccc(S(=O)(=O)N4CCCCC4)cc3)coc2c1C	0.3
COc1c(C)cccc1C(=O)Nc1cccc2ccc(C)nc12	0.33
Cc1cc(C)n2ncc(-c3nccn3CCCn3ccnc3)c2n1	0.22
CCOc1ccc(OCC)c(NC(=O)CCc2nc3cccnc3n2Cc2cccs2)c1	-0.8
O=C(O)CCc1ccc(-c2ccccc2)n1CC(=O)Nc1ccccc1C(F)(F)F	-2.8
COC(=O)c1ccc(C2C(C(=O)Nc3ccccc3)=C(C)Nc3nc4ccccc4n32)cc1 (configuration not stated)	-1.77
Cc1ccc(-c2nnc(Nc3cccc(Cl)c3)c3ccccc23)cc1S(=O)(=O)N1CCOCC1	2.16
O=C(c1ccccc1)N1CCCC(NC(=O)C2(N3CCCC3)CCCCC2)C1 (configuration not stated)	-2.39
COc1ccc(C)cc1NC(=O)C(NS(=O)(=O)c1cccs1)c1ccccc1 (configuration not stated)	-0.65
CCCN1C(=O)C2(c3ccccc31)c1c(oc3ccccc3c1=O)C(=O)N2CCCOC(C)C (configuration not stated)	-1.68
COc1cccc(N2CCN(C(=O)Cn3ncc4c(=O)oc5ccccc5c43)CC2)c1	0.07
O=C(Nc1ccc2oc(-c3ccc(O)c(Br)c3)nc2c1)c1cc2ccccc2o1	-0.36
CC1=C(C(=O)OC2CCCC2)C(c2cccc(Cl)c2Cl)CC(=O)N1 (configuration not stated)	-1.13
COC(=O)c1c(-c2cccc(C(=O)N3CCCC3c3ccccc3)c2)cnn1C (configuration not stated)	0.55
Cc1ccc(Cl)cc1N1CCN(C(=O)c2ccc3c(c2)N(Cc2ccccc2)CCS3)CC1	0.58
COc1ccc(CCN2C(=O)N(c3cccc(OC)c3)C(=O)C2CC(=O)Nc2ccccc2)cc1 (configuration not stated)	0.19

Gathered by group: those above with fluorine (12)
SMILES	Bm FixLJ act
C[C@H]1COc2c(C3(N)CC3)c(F)cc3c(=O)c(C(=O)O)cn1c23	-4.66
COc1ccc(-c2cc(C(F)(F)F)nc(SCC(=O)N(C)Cc3ccccc3)n2)cc1	0.86
CCc1ccc(C(=O)c2cn(Cc3ccc(F)cc3)c3cc(OC)c(OC)cc3c2=O)cc1	-0.25
CC(C)C1CN(c2ccc(C#N)cn2)CCC(=O)N1Cc1ccc(F)cc1 (configuration not stated)	-2.4
O=C(Nc1cccc(-c2nc3ccccc3[nH]2)c1)c1c(F)cccc1F	-3.56
Cc1ccc(C2C=C(c3ccc(F)cc3)Nc3nc(CCCO)nn32)cc1 (configuration not stated)	-0.76
CCOC(=O)c1c(NC(=O)CSc2cn(CCNC(=O)c3c(F)cccc3F)c3ccccc23)sc2c1CCC2	0.2
COc1cc(CN(C(=O)c2ccccc2F)C2CCS(=O)(=O)C2)cc(OC)c1OC (configuration not stated)	-0.42
Cc1nc2cc(-c3ccccc3)nn2c(C)c1CCC(=O)N1CCN(c2ccc(F)cc2)CC1	-0.12
Cc1nc(C(=O)NC2CCCC(CNC(=O)COc3cccc(F)c3)C2)cs1 (configuration not stated)	0.04
NC(=O)C1(N2CCCCC2)CCN(C(=O)Nc2ccc(F)cc2)CC1	-0.49
O=C(O)CCc1ccc(-c2ccccc2)n1CC(=O)Nc1ccccc1C(F)(F)F	-2.8

Continued.
SMILES	Bm FixLJ act
COc1ccc(NC(=O)c2oc3ccccc3c2NC(=O)c2cc3ccccc3o2)c(OC)c1	-1.22
Cc1ccc2c(=O)cc(C(=O)N(Cc3ccc(C(C)(C)C)cc3)C3CCS(=O)(=O)C3)oc2c1 (configuration not stated)	-0.72
CCOc1cc(/C=C(\C#N)C(=O)Nc2ccc(OC)cc2)ccc1OCc1cc(=O)n2nc(CC)sc2n1	-0.63
O=C(CSc1cn(CCNC(=O)c2cccc(C(F)(F)F)c2)c2ccccc12)Nc1ccc2c(c1)OCCO2	0.01
COc1ccccc1NC(=O)CN1C(=O)c2cccc3cccc1c23	-0.96
C=C1c2c(Cl)ccc(O)c2C(O)=C2C(=O)[C@]3(O)C(O)=C(C(N)=O)C(=O)[C@@H](N(C)C)[C@@H]3[C@@H](O)[C@H]12	-2.99
